# Screens from PubChem BioAssay.
# PV pol inh – poliovirus RNA polymerase inhibition; poliovirus polymerase elongation, fluorescence polarization; hits give low values; AID 588519; P03300; 0.66% of 150,000 active; % elongation, % (compound at 16.7 µg/mL); in the data active = % elongation below about 90%; also: some results filed as inactive read as strong as hits
# Target sequence (P03300 1749-2209 limits assumed): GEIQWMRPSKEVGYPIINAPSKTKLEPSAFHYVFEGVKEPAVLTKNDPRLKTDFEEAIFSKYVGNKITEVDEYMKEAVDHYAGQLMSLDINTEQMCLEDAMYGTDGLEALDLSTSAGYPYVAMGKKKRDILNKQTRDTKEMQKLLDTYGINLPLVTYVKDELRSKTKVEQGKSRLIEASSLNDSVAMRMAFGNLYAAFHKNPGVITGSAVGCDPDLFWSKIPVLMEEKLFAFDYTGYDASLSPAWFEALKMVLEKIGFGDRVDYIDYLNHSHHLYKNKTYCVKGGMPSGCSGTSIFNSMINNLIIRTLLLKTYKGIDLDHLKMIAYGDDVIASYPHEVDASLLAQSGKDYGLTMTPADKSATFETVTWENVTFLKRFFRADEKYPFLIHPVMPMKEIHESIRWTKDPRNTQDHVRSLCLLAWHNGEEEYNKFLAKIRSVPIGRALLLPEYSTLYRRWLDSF
# MenB inh – inhibitors of Mycobacterium tuberculosis MenB enzyme. MenB enzyme assay, absorbance read-out; some hits fall short of the stated cut. 0.43% of 100,000 active. inhibition, %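 (about 12 µg/mL by stock and volumes)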;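 active = mean of two replicates above 30%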;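 also: 0% = no compound and 100% = wells with inactive enzyme; the first replicate is given; strong numbers were not always called active; inactives centre near -10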
# MbtI inh – inhibitors of Mycobacterium tuberculosis siderophore enzyme MbtI; purified MbtI enzyme, fluorescence intensity read-out; inhibition, %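 (about 17 µg/mL by stock and volumes)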; 0.89% of 100,000 active;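 active = above 50% in both replicates, above 80% if mildly self-fluorescent; inactive = the rest, strongly fluorescent compounds included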;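 also: 0% = mean of negative and 100% = mean of positive controls; one replicate is shown; some compounds called inactive have numbers as strong as hits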
# Target sequence (P9WFX0 whole entry, looked up): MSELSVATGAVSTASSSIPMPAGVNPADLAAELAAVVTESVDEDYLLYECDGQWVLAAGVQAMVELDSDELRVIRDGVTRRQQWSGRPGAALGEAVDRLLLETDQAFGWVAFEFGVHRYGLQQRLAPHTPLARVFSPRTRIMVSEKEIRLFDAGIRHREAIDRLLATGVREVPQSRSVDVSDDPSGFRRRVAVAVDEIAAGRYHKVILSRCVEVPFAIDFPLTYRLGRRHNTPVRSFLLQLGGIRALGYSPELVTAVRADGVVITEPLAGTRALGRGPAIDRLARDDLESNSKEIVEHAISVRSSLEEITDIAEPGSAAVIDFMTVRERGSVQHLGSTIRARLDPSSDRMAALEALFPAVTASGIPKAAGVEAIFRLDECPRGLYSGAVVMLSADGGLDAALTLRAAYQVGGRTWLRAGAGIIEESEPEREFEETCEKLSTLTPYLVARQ
# PV pol inh intensity – second read-out of PV pol inh, no call of its own (marks repeat the call); % elongation; measured here: total intensity read-out; formula for this scale not given here;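 total fluorescence in place of polarization; lower means less elongation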
# Starred values were filed as active, the others as inactive; · = no result given; & = joins results of further samples; ! = repeats disagree. Rows are unselected. About 1.7% of those tested had a hit in this group.
SMILES,PV pol inh,PV pol inh intensity,MenB inh,MbtI inh
CCN(CCO)C(=O)Cc1cc(=O)[nH]c(=O)[nH]1,99,109,-2,0
COc1ccc(OCC(=O)N2CCOCC2)cc1,103,101,-24,-12
O=C(NC1CSCC1=O)c1ccccc1 (configuration not stated),105,104,-29,-11
CCCC1=NNC(=O)C1Cc1c(Cl)cccc1Cl (configuration not stated),103,114,-2,-16
CC1(C)C2CCC1(CS(=O)(=O)N1CCCN(c3nc4ccc(Cl)cc4s3)CC1)C(=O)C2 (configuration not stated),102,111,-8,-11
O=C(c1cc(=O)[nH]c2ccccc12)N1CCSC1=NCCc1ccccc1,64*,73*,-7,-5
CCc1ccc(C(N)c2cccc(F)c2)cc1 (configuration not stated),101,102,-36,-2
CC(C)N(C)C1CCN(S(=O)(=O)c2ccc(-c3ccc(=O)[nH]n3)s2)CC1,101,104,1,-26
CC(C)OC(=O)c1cccc(C(=O)O)n1,103,104,-12,7
C#CC(/C=C/C)OC(=O)c1ccccc1C(=O)O (configuration not stated),101,101,-6,-2
Cc1cc(C(=O)N(C2CCCCC2)C2CCCCC2)no1,100,103,-13,-7
O=C(CCS(=O)(=O)c1ccc(Br)s1)NC1CCCC1,103,105,5,3
ON=C(Cc1ccccc1)Cc1ccccc1,104,108,-16,-9
CCOC(=O)c1ccc(N2N=C(C(F)(F)F)CC2=O)cc1,106,104,-168,6
C/C(=N\NC(=O)c1cccnc1)c1ccc(S(=O)(=O)NCc2ccco2)cc1,107,107,-15,18
Cc1cc(C)n(-c2ncnc3sc4c(c23)CCC4)n1,103,105,5,-12
COCCN(C(=O)c1ccccc1)c1nnc(-c2ccncc2)s1,100,102,-15,-20
CCN1C(=C(C#N)C#N)C=Cc2ccccc21,103,100,-97,5
Cc1sc(/N=C/c2ccccc2O)c(C#N)c1C,101,107,10,2
Cc1ccc(S(=O)(=O)C(=O)Nc2cccc3nsnc23)cc1,103,99,-19,10
Cc1c(C)c(C)c(CSC2=NCN(C)CN2)c(C)c1C,98,98,2,5
O=C(O)CCCC(=O)c1ccccc1,96,95,-12,4
CC(=O)Nc1cc(C(F)(F)F)ccc1NC(=O)C(F)(F)F,104,103,·,0
CC(C)=CC(=O)N1CCN(S(=O)(=O)c2ccc(C)cc2)CC1,103,105,-6,-2
CN(C)CCNC(=O)c1ccc(N2CCOc3ccccc32)s1,101,101,-33,-116
O=C(NCc1ccccc1)c1cc2c(s1)CS(=O)(=O)C2,103,107,12,5
O=C(O)c1ccccc1C(=O)Nc1ccccn1,102,113,5,·
CCOc1ccc(/C(O)=C2\C(=O)C(=O)N(CCN(CC)CC)C2c2ccc(Cl)cc2)cc1C (configuration not stated),102,107,-3,-1
COc1ccc(-c2nnc(SC(C)C(=O)NC34CC5CC(CC(C5)C3)C4)o2)cc1 (configuration not stated),108,107,-26,-13
COc1ccc(/C=C2\CCCC3=C2NC(=S)NC3c2ccc(OC)cc2)cc1 (configuration not stated),102,110,-33,47
O=C(Cc1ccsc1)OCC(=O)N1CCN(S(=O)(=O)c2ccc(Cl)cc2)CC1,104,103,-2,-9
CCS(=O)(=O)N(CC(=O)N1CCCC1)c1ccc(OC)cc1,100,103,-29,·
CCC(C(=O)Nc1ccccc1F)n1c(SCc2ccc(F)cc2)nc2ccncc21 (configuration not stated),101,98,-17,-9
Cc1ccc(OCCCn2cnc3ccccc32)cc1,102,103,-14,-5
O=c1cc(CN2CCOCC2)nc2sccn12,102,108,14,1
CC(C)N(Cc1ccccc1)C(=O)COc1ccccc1,106,113,1,·
O=C1NCCCc2nc(N3CCCCC3)sc21,101,113,13,·
COCc1cc(=O)n2[nH]c(Nc3cc(Cl)ccc3C)nc2n1,105,108,5,-9
O=C(O)CSCC(=O)N1CCCCC1,102,94,7,·
O=C(CCCN1C(=O)CSc2ncccc21)N1CCN(c2ccccn2)CC1,102,106,-19,7
Fc1ccc2nc(N3CCc4ccccc4C3)sc2c1,100,107,0,11
Cc1ccc(F)cc1NC(=O)CNC(N)=O,103,94,-18,-15
CC(=O)N(Cc1ccccc1C)c1cccc(C)c1C,101,103,-22,-10
CC(Sc1nnc(-c2ccco2)n1Cc1ccccc1)C(=O)NC1CCCC1 (configuration not stated),·,·,-23,-3
CCNC(=S)NCc1ccc2c(c1)OCO2,106,100,-26,-9
O=C(CCCN1CCC(O)(c2ccc(Br)cc2)CC1)c1ccc(F)cc1,101,99,-1,-6
COc1ccc2c(c1OC)C(=O)O[C@@H]2[C@@H]1c2cc3c(cc2CCN1C)OCO3,99,103,8,-9
CC(/C(=N/O)c1ccccc1)N1CCC(O)O1 (configuration not stated),99,107,-25,-8

# Reformatted: four of the compounds above.
O=C(O)CSCC(=O)N1CCCCC1
  PV pol inh: 102
  PV pol inh intensity: 94
  MenB inh: 7
  MbtI inh: ·
O=C(CCCN1C(=O)CSc2ncccc21)N1CCN(c2ccccn2)CC1
  PV pol inh: 102
  PV pol inh intensity: 106
  MenB inh: -19
  MbtI inh: 7
Fc1ccc2nc(N3CCc4ccccc4C3)sc2c1
  PV pol inh: 100
  PV pol inh intensity: 107
  MenB inh: 0
  MbtI inh: 11
Cc1ccc(F)cc1NC(=O)CNC(N)=O
  PV pol inh: 103
  PV pol inh intensity: 94
  MenB inh: -18
  MbtI inh: -15

# (list continues)
SMILES,PV pol inh,PV pol inh intensity,MenB inh,MbtI inh
c1ccc(-c2nc(CSc3nc4ccccc4[nH]3)c(CSc3nc4ccccc4[nH]3)o2)cc1,102,102,-49,5
CC(c1ccco1)N(C(=O)c1sc2ccccc2c1Cl)c1ccccn1 (configuration not stated),108,104,-20,0
COc1ccc(-c2n[nH]c(=S)n2/N=C/c2cccc(OC)c2O)cc1,99,105,-26,58
O=C(Cc1ccccc1)NNc1cccc(Cl)c1,106,101,-20,-3
Cc1cc(C)cc(NCCC#N)c1,107,110,-11,-6
Nc1ccc(C(=O)CC(=O)Nc2ccc(Cl)cc2)cc1,102,102,0,-20
Cc1ccc(N2CCN(C(=O)c3cccs3)CC2)cc1C,101,105,-2,-13
C/C(=N\O)C1(C)N(O)C(C)(C)C(c2cccs2)=[N+]1[O-] (configuration not stated),101,105,-17,10
c1cc2cc(C3=NCCN3)ccc2cc1C1=NCCN1,99,92,7,92
CCn1c(O)c(/C=N/N=C2/C(=O)N(C)c3ccccc32)c(=O)n(CC)c1=S,106,109,-20,7
CC1CC(C)CN(CCCN)C1 (configuration not stated),103,107,-4,-3
NC(=O)C1(c2ccccc2)CCOCC1,102,101,-10,9

# Structural class: the compounds so far with a COOH group (5)
SMILES,PV pol inh,PV pol inh intensity,MenB inh,MbtI inh
CC(C)OC(=O)c1cccc(C(=O)O)n1,103,104,-12,7
C#CC(/C=C/C)OC(=O)c1ccccc1C(=O)O (configuration not stated),101,101,-6,-2
O=C(O)CCCC(=O)c1ccccc1,96,95,-12,4
O=C(O)c1ccccc1C(=O)Nc1ccccn1,102,113,5,·
O=C(O)CSCC(=O)N1CCCCC1,102,94,7,·

# Carrying on.
SMILES,PV pol inh,PV pol inh intensity,MenB inh,MbtI inh
C=CCN(C(=O)CN1CCOCC1)c1nc(C)c(-c2ccccc2)s1,101,101,-27,-2
O=C(CSc1cnc2ccccc2n1)NC1CCCC1,103,106,·,0
Cc1nn(-c2ccccc2)c2oc(=O)c(NC(=O)c3ccc(F)cc3)cc12,102,108,·,-4
Cc1oc2cc(O)ccc2c(=O)c1-c1ccccc1,96,94,-28,106
O=C(O)CC(=O)Nc1cc(Cl)ccc1O,101,104,10,0
CCCC1OC2CC3C4CCC5=CC(=O)C=CC5(C)C4C(O)CC3(C)C2(C(=O)O)O1 (configuration not stated),102,102,-11,-1
Oc1ccc(Br)cc1C=NCC1CCCO1 (configuration not stated),98,81,-32,·
O=S(=O)(NCc1cc(F)cc2c1OCOC2)c1ccc(N2CCOCC2)nc1,103,97,13,8
CC(NS(=O)(=O)c1ccccc1)C(N)=O (configuration not stated),103,101,-22,-7
CC1CCCC(N2CNc3nc4ccccc4n3C2)C1C (configuration not stated),99,101,-1,9
Cc1ccc(CN2C(=O)/C(=C/C(=O)NCCc3ccccc3)Sc3ccccc32)cc1,99,101,-77,12
COc1ccc(N=c2scc(C)n2CCCN2CCCC2=O)cc1,105,104,-3,6
Cc1csc2ncc(C(=O)N(C)Cc3ccccc3)c(=O)n12,100,103,12,108
Cc1ccc(C)c(-n2c(SCCN)nnc2-c2cccc(Cl)c2)c1,98,101,-109,12
Cc1cc(C(F)(F)F)c2c(n1)sc1c(=O)[nH]c(C)nc12,45,245,-6,·
CC1CN(C(=O)CCS(=O)(=O)c2ccccc2)CC(C)O1 (configuration not stated),103,103,3,-5
Fc1ccc(Oc2cnccn2)c(Cl)c1,97,106,8,1
COC(=O)c1ccc(NC(=O)COc2ccccc2)cc1,103,105,·,3
CC(=O)Oc1ccc2c(c1)C(C)=CC(C)(C)N2C(C)=O,100,101,7,2
O=C(Nc1cccc(Cl)c1)OC1CCCCc2cccnc21 (configuration not stated),101,103,5,-6
Cc1noc(C)c1COC(=O)c1ccc(S(=O)(=O)C(F)F)cc1,104,109,9,-14
O=c1[nH]c(=S)[nH]c2[nH]c(=S)[nH]c12,100,99,-38,101
O=C(O)c1cccc(N=Nc2sc3ccccc3c2O)c1,107,93,-209,89
Cc1ccc(NC(=S)Nc2ccc(N3CCOCC3)cc2)cc1C,108,115,-11,·

# A different layout for two compounds above:
# Values run as follows: PV pol inh | PV pol inh intensity | MenB inh | MbtI inh
- O=C(O)c1cccc(N=Nc2sc3ccccc3c2O)c1
    107 | 93 | -209 | 89
- CC1CN(C(=O)CCS(=O)(=O)c2ccccc2)CC(C)O1 (configuration not stated)
    103 | 103 | 3 | -5

# More results follow.
SMILES,PV pol inh,PV pol inh intensity,MenB inh,MbtI inh
CCC(=O)N1CCc2cc(S(=O)(=O)NC(CC(C)C)C(=O)NC3CCCC3)ccc21 (configuration not stated),102,104,-11,-5
O=C(CSc1nc(-c2ccccc2)[nH]c1-c1ccccc1)Nc1ccccc1,102,99,-3,-16
Fc1ccc(C=Nc2ccc3ccccc3c2)cc1,104,106,0,·
Cc1ccc(NC(=O)COc2ncnc3c2cnn3-c2ccccc2)cc1,109,110,-23,5
COc1cc(CCC(=O)NCC(c2ccc(F)cc2)N2CCOCC2)cc(OC)c1OC (configuration not stated),108,108,-20,-8
CCc1nnc2c3c4c(sc3nc(C)n12)CCC4,110,111,6,13
Cc1ccc(OCC(=O)Nc2ccc(-c3nn4c(C)nnc4s3)cc2)cc1,98,99,-14,27
N=C1/C(=C/c2cccs2)C(=O)N=C2SC=C(c3ccccc3)N12,99,97,-53,30
Cc1ccc(S(=O)(=O)C(CC(=O)c2ccc(F)cc2)c2ccco2)cc1 (configuration not stated),105,101,6,19
CC(C)NC(=O)CCn1c(=O)oc2ccccc21,101,105,1,4
CC1CCC(C(C)C)C(NC(=O)c2cccc3ccccc23)C1 (configuration not stated),103,96,-12,-12
CCOC(=O)c1cc(-c2ccccc2)n(CC(=O)N2CCCCCC2)c1C,99,99,-10,-4
Cc1nn(-c2ccccc2)c2sc(C(N)=O)cc12,101,105,-10,·
Cc1ccc2c(c1)sc1ncc(S(=O)(=O)c3ccc(F)c(Cl)c3)c(=O)n12,106,109,-14,-30
N#Cc1c(SCC(=O)NCCc2ccccc2)sc2c(=O)[nH]c(=O)[nH]c12,103,101,-5,4
COc1ccc2cc(CCNC(=O)c3ccccc3)c(=O)[nH]c2c1,98,99,-11,18
CCCNC(=O)c1ccc(CS(=O)Cc2cccc(Cl)c2)o1 (configuration not stated),102,102,-3,-8
CN(CC1CCCO1)C1CCN(C(=S)Nc2cc(F)cc(F)c2)CC1 (configuration not stated),99,102,-3,-13
CCOC(=O)c1c(CS(=O)Cc2ccc(Cl)cc2)oc2c(F)c(F)c(F)c(F)c12 (configuration not stated),99,103,-10,-2
Cc1cc(C)n2c(Br)c(CN3CC(C)CC(C)C3)nc2n1 (configuration not stated),103,106,-1,-93
O=C(O)c1ccccc1NCCc1ccc(F)cc1,105,109,·,85
Cc1ccc(NC(=O)CC(NCCN2CCOCC2)C(=O)O)cc1Cl (configuration not stated),105,103,-6,-10
COc1cc(CN(CC2CCCO2)C(=O)c2ccco2)cc(OC)c1OC (configuration not stated),103,101,-2,-4
Cc1ccc(Cl)cc1N/C=C/C(=O)C(C)(C)C,99,100,-43,-9
O=C(O)C(Cc1ccc(F)cc1)c1ccccc1 (configuration not stated),104,108,-2,·
O=c1[nH]c2ccc3nsnc3c2[nH]c1=O,101,100,-66,5
O=C(/C=C/c1ccc(Cl)cc1Cl)NCC1CCCO1 (configuration not stated),98,107,-16,·
C=CCn1c(SCC(=O)Nc2ccc3[nH]c(=O)[nH]c3c2)nnc1-c1ccccc1F,104,105,2,-2
CCOC(=O)C1C(=O)OC(C)(C)C1C(=O)OCC (configuration not stated),100,103,-5,-5
O=C1CCCN1CN(C(=O)c1ccccc1)c1cccc(Cl)c1,102,105,-36,-13
COc1ccc(-c2noc(CN(C)C(=O)c3ccccc3)n2)cc1,101,99,-12,-10
COc1ccc2cc3cc(C(=O)NCCCN4CCCCCC4)sc3nc2c1,104,96,4,94
CC(C)OC(=O)CSc1nc2cc3c(cc2cc1C#N)OCO3,100,102,-18,3
CC(C)C(=O)NC(c1ccc(Cl)cc1Cl)c1ccc2cccnc2c1O (configuration not stated),124,184,-36,·
C=CCn1c(=S)[nH]c2ccccc2c1=O,104&100,103&102,31*!,19&19
CC(C)c1cc(C(C)C)c(S(=O)(=O)n2ccnc2)c(C(C)C)c1,107,110,4,-11
